DUX4 inh: DUX4-mediated transcription inhibition | hit rate 0.8% among 37,000 | 293T-iDUX4 ZSCAN4-Gaussia luciferase reporter, 24 h; hits give low values | activity change, negative = inhibition, % (test concentration not listed);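 active = -10% or lower and over 25 points stronger than a control reporter; inconclusive = -10% or lower with a smaller gap; inactive = above -10%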;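 note: 0% = median of neutral control wells and -100% = median of positive control wells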
DUX4 inh difference: further read-out of DUX4 inh, marked with its call; Gaussia minus Italica difference, %; measured here: selective DUX4 reporter inhibition;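 worked out from the two reporters; negative = selective loss of the DUX4 reporter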
DUX4 inh control: also measured in DUX4 inh; calls as there; activity change, negative = inhibition, %; measured here: Italica tet-on control reporter;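 0 = neutral control and -100 = positive control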
Numbers without * were called inactive; ? = inconclusive; nt = not tested or not shown.

no.	DUX4 inh	DUX4 inh difference	DUX4 inh control	SMILES
1	-9	8	-17	O=C(c1cccnc1)N1CC[C@@H]2[C@H](CO)Nc3ccc(-c4ccccc4)cc3[C@@H]21
2	-2	-3	1.2	COc1ccc(NC(=O)N(C)C[C@@H]2Oc3ccc(NC(=O)Nc4cccc5ccccc45)cc3CC(=O)N([C@@H](C)CO)C[C@@H]2C)cc1
3	4	2	1.9	COC(=O)C[C@H]1CC[C@@H]2[C@@H](COc3ccc(NC(=O)Cc4cccs4)cc3C(=O)N2C)O1
4	?	nt	nt	O=S(=O)(Cc1ccccc1)N1CCCCN2[C@H](C1)[C@H](c1ccc(-c3ccc(F)cc3)cc1)[C@@H]2CO
5	1	4	-2.5	O=C(C1CCOCC1)N1[C@H](CO)[C@@H]2c3ccccc3NC[C@@H]21
6	-6	-5	-0.1	CO[C@@H]1CN(C)C(=O)c2cc(NC(C)=O)ccc2OC[C@H](C)N(Cc2ccncc2)C[C@H]1C
7	-2	0	-2.7	CN(C[C@H]1N[C@@H](CO)[C@@H]1c1ccc(-c2cccc(F)c2)cc1)S(C)(=O)=O
8	6	-1	6.7	Cn1cnc(S(=O)(=O)N2C[C@H](O)COC[C@H]3O[C@@H](CC(=O)NCc4cc(F)cc(F)c4)CC[C@@H]32)c1
9	1	-1	1.3	N#C[C@H]1[C@H](c2ccc(C#Cc3ccc(F)cc3)cc2)[C@@H](CO)N1C(=O)C1CCCC1
10	-5	-1	-4.4	CCCNC(=O)N1C[C@H](O)COC[C@@H]2O[C@H](CC(=O)N3CCC(Cc4ccccc4)CC3)CC[C@H]21
11	2	4	-2.1	CCCNC(=O)N1[C@H](CNC(=O)c2cccc(F)c2)[C@H](c2ccccc2)[C@@H]1CO
12	?	nt	nt	Cc1ccccc1-c1ccc(C2[C@@H]3CN(S(=O)(=O)Cc4ccccc4)C[C@H]2N3)cc1 (some centres not stated)
13	6	2	4.4	CN1C(=O)c2cc(NC(=O)C3CCOCC3)ccc2OC[C@H]2O[C@H](CC(=O)NCc3ccc4c(c3)OCO4)CC[C@@H]21
14	0	-11	11	O=C(NCC[C@@H]1CC[C@@H](NC(=O)c2ccncc2)[C@@H](CO)O1)Nc1ccc(Cl)cc1
15	9	4	5.1	CC(C)NC(=O)N1CC(=O)N2[C@@H](CO)[C@@H](c3ccc(C#CCN(C)C)cc3)[C@@H]2C1
16	-3	-1	-1.3	COCC(=O)Nc1ccc2c(c1)[C@@H]1C[C@H](CC(=O)N[C@H](C)c3ccccc3)O[C@H](CO)[C@@H]1O2
17	4	4	-0.4	CCCNC(=O)N1C[C@@H](O)COC[C@H]2O[C@@H](CC(=O)OC)CC[C@@H]21
18	3	4	-0.8	CC=Cc1ccc2n(c1=O)C[C@H]1[C@H](CO)[C@@H](C(=O)NCCc3ccccc3)N(C(=O)CC)[C@@H]21 (mixture of isomers)
19	0	-3	3.0	C[C@@H]1CN([C@H](C)CO)C(=O)c2cc(NC(=O)C3CCCCC3)ccc2O[C@@H](C)CCCCO[C@@H]1CN(C)C(=O)CCC(F)(F)F
20	4	2	2.4	Cc1noc(C)c1S(=O)(=O)Nc1cccc2c1O[C@H](CN(C)S(=O)(=O)c1ccc(Cl)cc1)[C@H](C)CN([C@H](C)CO)C2=O
21	2	0	1.8	O=C(c1ccncc1)N1CC2(C1)[C@H](c1ccccc1)[C@@H](CO)N2CC1CCCC1
22	4	4	-0.5	CC(=O)N1[C@@H]2Cn3c(ccc(-c4ccccc4)c3=O)[C@H]1[C@@H](C(=O)NC1Cc3ccccc3C1)[C@@H]2CO
23	2	4	-2.0	O=C(C[C@@H]1CC[C@H]2[C@@H](COC[C@H](O)CN2C(=O)c2cnccn2)O1)N1CCN(c2ccccc2)CC1
24	0	-7	7.1	C[C@@H]1CN([C@H](C)CO)C(=O)c2ccccc2-c2ccccc2CO[C@@H]1CN(C)S(=O)(=O)Cc1ccccc1
25	17	14	2.1	CCNC(=O)C[C@@H]1CC[C@H]2[C@@H](COC[C@@H](O)CN2C(=O)c2cc(Cl)cc(Cl)c2)O1

Structures shown so far that have four or more nitrogen atoms, in the order listed:
no.	DUX4 inh	DUX4 inh difference	DUX4 inh control	SMILES
2	-2	-3	1.2	COc1ccc(NC(=O)N(C)C[C@@H]2Oc3ccc(NC(=O)Nc4cccc5ccccc45)cc3CC(=O)N([C@@H](C)CO)C[C@@H]2C)cc1
6	-6	-5	-0.1	CO[C@@H]1CN(C)C(=O)c2cc(NC(C)=O)ccc2OC[C@H](C)N(Cc2ccncc2)C[C@H]1C
8	6	-1	6.7	Cn1cnc(S(=O)(=O)N2C[C@H](O)COC[C@H]3O[C@@H](CC(=O)NCc4cc(F)cc(F)c4)CC[C@@H]32)c1
14	0	-11	11	O=C(NCC[C@@H]1CC[C@@H](NC(=O)c2ccncc2)[C@@H](CO)O1)Nc1ccc(Cl)cc1
15	9	4	5.1	CC(C)NC(=O)N1CC(=O)N2[C@@H](CO)[C@@H](c3ccc(C#CCN(C)C)cc3)[C@@H]2C1
20	4	2	2.4	Cc1noc(C)c1S(=O)(=O)Nc1cccc2c1O[C@H](CN(C)S(=O)(=O)c1ccc(Cl)cc1)[C@H](C)CN([C@H](C)CO)C2=O
23	2	4	-2.0	O=C(C[C@@H]1CC[C@H]2[C@@H](COC[C@H](O)CN2C(=O)c2cnccn2)O1)N1CCN(c2ccccc2)CC1

(further entries)
no.	DUX4 inh	DUX4 inh difference	DUX4 inh control	SMILES
26	-2	2	-3.5	O=C(NC[C@@H]1[C@H](c2ccccc2)[C@H](CO)N1CC1CCCC1)c1ccncc1
27	17	10	7.4	N#C[C@H]1[C@H](c2ccccc2-c2ccc(F)cc2)[C@@H](CO)N1C(=O)Cc1cccnc1
28	3	1	1.9	COc1ccccc1C#Cc1ccc([C@@H]2[C@H](C#N)N(C(=O)C3CCCCC3)[C@H]2CO)cc1
29	8	-2	9.8	O=C(C[C@H]1C[C@@H]2c3cc(NC(=O)Nc4ccccc4F)ccc3O[C@@H]2[C@H](CO)O1)NCC1CC1
30	3	1	1.8	C[C@@H]1CCCCO[C@H](CN(C)C(=O)Nc2ccccc2)[C@H](C)CN([C@H](C)CO)C(=O)c2cc(NC(=O)Nc3ccccc3)ccc2O1
31	-10	0	-9.6	CN1CCCCN2[C@H](C1)[C@@H](c1ccc(C#Cc3ccccc3F)cc1)[C@@H]2CO
32	6	4	2.5	COCC(=O)Nc1ccc2c(c1)[C@H]1C[C@H](CC(=O)NC3CCCC3)O[C@@H](CO)[C@H]1O2
33	-3	-2	-1.1	O=C1NCCOCn2nncc2CC[C@H]1Cc1cccc(Cl)c1
34	4	-6	9.3	COCC(=O)N1CC(=O)N2[C@H](C1)[C@@H](c1ccc(-c3ccccc3F)cc1)[C@@H]2CO
35	13	11	1.8	CS(=O)(=O)N1[C@H](C#N)[C@H](c2ccccc2-c2ccccc2)[C@@H]1CO
36	3	-9	12	Cc1ccccc1S(=O)(=O)N1CC(=O)N2[C@@H](CO)[C@H](c3ccc(C#CCC4CCCC4)cc3)[C@@H]2C1
37	3	0	2.8	C[C@@H]1CN([C@@H](C)CO)S(=O)(=O)c2ccc(-c3ccncc3)cc2O[C@@H]1CN(C)S(C)(=O)=O
38	-1	-2	0.7	O=C(C[C@H]1C[C@H]2c3cc(NC(=O)c4cccnc4)ccc3O[C@H]2[C@@H](CO)O1)NCc1cc(F)ccc1F
39	-2	-2	0.2	O=C([C@H]1[C@H](CO)[C@H]2Cn3c(cccc3=O)[C@H]2N1Cc1cocn1)N1CCC(Cc2ccccc2)CC1
40	0	-2	1.4	O=C(C[C@@H]1C=C[C@H](NC(=O)CC2CC2)[C@H](CO)O1)NCC(F)(F)F
41	7	4	3.4	C[C@H](NC(=O)C[C@H]1C[C@H]2c3cc(N(C)C)ccc3O[C@H]2[C@@H](CO)O1)c1ccccc1
42	-2	-1	-0.8	CN(C)C(=O)[C@@H]1[C@@H](CO)[C@@H]2Cn3c(ccc(C4=CCCC4)c3=O)[C@H]1N2CC1CCCC1
43	3	2	1.5	O=C(C1CCOCC1)N1CC(=O)N2[C@@H](CO)[C@H](c3ccc(-c4cccnc4)cc3)[C@@H]2C1
44	-1	-3	1.4	CN(C)CC(=O)N1[C@@H](C#N)[C@@H](c2ccc(C#CC3CCCCC3)cc2)[C@@H]1CO
45	3	1	2.3	C[C@H](CO)N1C[C@H](C)[C@@H](CN(C)S(=O)(=O)c2cn(C)cn2)Oc2cc(Br)ccc2S1(=O)=O
46	?	nt	nt	COc1cccc(C(=O)Nc2ccc3c(c2)C(=O)N(C)[C@H]2CC[C@H](CC(=O)N[C@@H](C)c4ccccc4)O[C@H]2CO3)c1
47	-2	-5	3.0	O=S(=O)(c1ccc(F)cc1)N1CC[C@@H]2[C@H]1c1cc(-c3ccc(F)cc3)ccc1N[C@@H]2CO
48	0	1	-1.0	O=C(NC1CCC1)[C@@H]1[C@@H](CO)[C@@H]2Cn3c(ccc(C4=CCCC4)c3=O)[C@H]1N2CC1CC1
49	2	0	2.0	O=C(C[C@@H]1CC[C@H]2[C@@H](COC[C@@H](O)CN2C(=O)c2cccnc2)O1)NCC1CC1
50	6	7	-0.7	CO[C@@H]1CN(C)C(=O)c2cc(NS(=O)(=O)c3cn(C)cn3)ccc2OC[C@@H](C)N(CC2CC2)C[C@H]1C

Further structures.
no.	DUX4 inh	DUX4 inh difference	DUX4 inh control	SMILES
51	6	-1	6.8	COc1ccc(CNC(=O)C[C@H]2C=C[C@@H](NC(=O)Nc3ccc4c(c3)OCO4)[C@@H](CO)O2)cc1
52	-4	-3	-1.4	COc1ccc(S(=O)(=O)Nc2cccc3c2O[C@@H](CN(C)CC2CCCCC2)[C@H](C)CN([C@@H](C)CO)C3=O)cc1
53	0	-1	0.7	CCC(=O)N1[C@@H]2c3ccc(C4=CCCCC4)c(=O)n3C[C@H]1[C@H](CO)[C@H]2C(=O)N[C@@H](C)c1ccccc1
54	0	7	-7.8	CCCC(=O)N1CC2(C1)CN(Cc1ccccc1F)[C@@H](CO)c1c2c2ccc(OC)cc2n1C
55	8	4	3.7	CO[C@H]1CN(C)C(=O)c2ccc(NS(C)(=O)=O)cc2OC[C@@H](C)N(C(=O)C2CCCCC2)C[C@H]1C
56	-5	-4	-1.1	C/C=C/c1ccc([C@H]2[C@@H](CO)N[C@@H]2CN(Cc2cccnc2)C(=O)C2CC2)cc1
57	6	8	-2.5	CO[C@H]1CN(C)C(=O)c2cc(NC(=O)c3cccc(F)c3)ccc2OC[C@H](C)N(C)C[C@@H]1C
58	0	0	-0.1	C[C@@H]1CCCCO[C@@H](CN(C)C(=O)Nc2ccccc2)[C@H](C)CN([C@@H](C)CO)C(=O)c2cc(NC(=O)Nc3ccccc3)ccc2O1
59	5	3	1.8	C/C=C/c1ccc([C@@H]2[C@@H](CO)N(c3ncc(CC)s3)[C@H]2C#N)cc1
60	?	nt	nt	C[C@@H](NC(=O)[C@@H]1[C@@H](CO)[C@@H]2Cn3c(cccc3=O)[C@@H]2N1CC1CCCCC1)c1ccccc1
61	-29*	-25*	-3.8*	C[C@H](CO)N1C[C@H](C)[C@H](CN(C)Cc2cccc(O)c2)OCc2ccccc2-c2c(n(C)c3ccccc23)C1=O
62	?	nt	nt	CCC(=O)N1CC2(CN(Cc3ccc(Cl)cc3)C2)c2c(n(C)c3cc(OC)ccc23)[C@@H]1CO
63	-1	-1	-0.7	CN(C)c1ccc2c(c1)[C@@H]1C[C@@H](CC(=O)N3CCOCC3)O[C@@H](CO)[C@@H]1O2
64	4	1	2.3	CCCNC(=O)N1CC2(C1)[C@H](c1ccccc1)[C@@H](CO)N2C(=O)C1CCCCC1
65	7	0	6.1	COc1ccc(NC(=O)Nc2cccc3c2O[C@H](CN(C)Cc2ccc(C(=O)O)cc2)[C@@H](C)CN([C@H](C)CO)C3=O)cc1
66	12	6	6.2	C/C=C/c1ccc([C@H]2[C@@H](CO)N3CCCCN(C(=O)Nc4ccc(OC)cc4)C[C@@H]23)cc1
67	0	1	-0.3	COc1ccc(S(=O)(=O)N(C)C[C@H]2OCCCC[C@H](C)Oc3ccc(NC(=O)Cc4ccccc4)cc3C(=O)N([C@@H](C)CO)C[C@H]2C)cc1
68	3	5	-2.0	C[C@H]1CN([C@@H](C)CO)C(=O)c2cc(-c3cccc(F)c3)cnc2O[C@@H]1CN(C)C(=O)c1cnccn1
69	-3	-11	8.1	C[C@H]1CN([C@@H](C)CO)C(=O)c2ccccc2-c2ccccc2CO[C@H]1CN(C)C(=O)[C@@H]1CCCN1C
70	7	9	-2.3	CCNC(=O)C[C@H]1CC[C@@H]2[C@H](COC[C@H](O)CN2S(=O)(=O)c2ccc(Oc3ccccc3)cc2)O1
71	?	nt	nt	COc1ccc2c3c([nH]c2c1)[C@H](CO)N(C(=O)Nc1ccc(F)cc1)CC31CCN(S(C)(=O)=O)CC1

Sorted by value in DUX4 inh control (ascending): some entries from above
no.	DUX4 inh	DUX4 inh difference	DUX4 inh control	SMILES
63	-1	-1	-0.7	CN(C)c1ccc2c(c1)[C@@H]1C[C@@H](CC(=O)N3CCOCC3)O[C@@H](CO)[C@@H]1O2
58	0	0	-0.1	C[C@@H]1CCCCO[C@@H](CN(C)C(=O)Nc2ccccc2)[C@H](C)CN([C@@H](C)CO)C(=O)c2cc(NC(=O)Nc3ccccc3)ccc2O1
66	12	6	6.2	C/C=C/c1ccc([C@H]2[C@@H](CO)N3CCCCN(C(=O)Nc4ccc(OC)cc4)C[C@@H]23)cc1

3 compounds already listed, ordered by SMILES length, rising.
no.	DUX4 inh	DUX4 inh difference	DUX4 inh control	SMILES
59	5	3	1.8	C/C=C/c1ccc([C@@H]2[C@@H](CO)N(c3ncc(CC)s3)[C@H]2C#N)cc1
64	4	1	2.3	CCCNC(=O)N1CC2(C1)[C@H](c1ccccc1)[C@@H](CO)N2C(=O)C1CCCCC1
66	12	6	6.2	C/C=C/c1ccc([C@H]2[C@@H](CO)N3CCCCN(C(=O)Nc4ccc(OC)cc4)C[C@@H]23)cc1

An excerpt; rates above refer to the full screens.
